eIF4H inh: inhibitors of RNA binding by human eIF4H | eIF4H fluorescence polarization binding assay | AID 2012 | Q15056 | inhibition, % at 35 µM | 290,000 compounds, 0.94% hits;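 active = 50% or more with normal probe brightness, or confirmed in later tests; inconclusive = above 50% with abnormal brightness, or retests that disagree; inactive = below 50% or failed in later tests; about a fifth of its hits are not listed in these tables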;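 note: calls also rest on retests at 20 µM and on dose response follow-up; 0% = protein and probe with vehicle and 100% = probe without protein; strong numbers were not always called active; many hits fall short of the cut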
MT1-MMP act inh: blocks activation of human MT1-MMP. P50281. HT1080 RFP-PRO-GFP cells, GFP/RFP ratio fluorescence, overnight; percent of plate control window, DMSO zero. GFP/RFP ratio change, % at 20 µM. 360,000 compounds, 0.061% hits. AID 651647;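 active = GFP/RFP ratio change of at least 30% with cell ATP level not reduced by more than half and red fluorescence within 50% of control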; note: strong numbers were not always called active
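Material – HT1080 RFP-PRO-GFP cells · Control set – DMSO wells and RFP-L50D-GFP cells · Incubation – overnight cell settling, then overnight compound exposure, 37 °C, 5% CO2 · Compound dosing – single-point 20 µM compound, 1% DMSO · Read-out – GFP/RFP fluorescence ratio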
Yeast UUG start: modulators of start codon recognition fidelity in yeast. S. cerevisiae UUG-firefly luciferase reporter, luminescence/redox ratio. activity score, % at 18.7 µM. 350,000 compounds, 0.13% hits. AID 602363;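 active = replicate mean at a twofold rise or more, about +100% in these data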;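 note: firefly luciferase made from a UUG start codon reports start codon fidelity; reporter light over untreated wells divided by growth signal over untreated wells; some hits fall short of that in this replicate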
Rce1 inh: inhibitors of yeast Ras-converting enzyme. yeast membranes, quenched prenylated peptide cleavage fluorescence. Q03530. calls only. 290,000 compounds, 0.27% hits;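 active = fall in fluorescence gain of 50% or more versus controls, with final raw signal at or below 3038400; inconclusive = same 50% fall but final raw signal above 3038400; inactive = fall in fluorescence gain under 50%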;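 note: plate controls were neutral control wells for no effect and wells lacking membranes for full effect; tested at 10 µM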
Target sequence (Q03530 whole entry, looked up): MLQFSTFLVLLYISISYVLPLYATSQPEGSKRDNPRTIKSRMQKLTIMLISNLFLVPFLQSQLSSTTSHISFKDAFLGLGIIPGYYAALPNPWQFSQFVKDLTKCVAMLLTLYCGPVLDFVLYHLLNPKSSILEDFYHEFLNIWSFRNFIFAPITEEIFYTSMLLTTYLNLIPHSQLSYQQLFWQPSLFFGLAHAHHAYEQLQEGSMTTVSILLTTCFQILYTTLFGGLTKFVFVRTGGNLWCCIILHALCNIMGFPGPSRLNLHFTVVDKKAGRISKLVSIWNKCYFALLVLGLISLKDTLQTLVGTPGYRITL
Env fusion inh: blocks HIV Env-driven cell-cell fusion. HeLa-JRFL Env/CEM21 cell fusion, luciferase. inhibition, % at 12.3 µM. 360,000 compounds, 1.1% hits. AID 651610;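 active = mean replicate inhibition score of at least 50 and every replicate individually at or above 50; inconclusive = only one of the two criteria met; inactive = mean below 50 and not all replicates reaching 50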;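 note: 0% = plate neutral controls and 100% = maraviroc near 300 nM; one replicate is shown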
PABP polyA inh: PABP-poly(A) binding inhibition | PABP-poly(A) RNA binding, fluorescence polarization | inhibition, % at 35 µM | 290,000 compounds, 1% hits | AID 2014;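 active = 50% or more with normal probe brightness, or confirmed in later tests; inconclusive = above 50% with abnormal brightness, or retests that disagree; inactive = below 50% or failed in later tests; about a fifth of its hits are not listed in these tables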;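 note: calls also rest on retests at 20 µM and on dose response follow-up; controls were probe without protein and protein plus probe with vehicle; some compounds called inactive have numbers as strong as hits; many hits fall short of the cut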
Target sequence (P11940 whole entry, looked up): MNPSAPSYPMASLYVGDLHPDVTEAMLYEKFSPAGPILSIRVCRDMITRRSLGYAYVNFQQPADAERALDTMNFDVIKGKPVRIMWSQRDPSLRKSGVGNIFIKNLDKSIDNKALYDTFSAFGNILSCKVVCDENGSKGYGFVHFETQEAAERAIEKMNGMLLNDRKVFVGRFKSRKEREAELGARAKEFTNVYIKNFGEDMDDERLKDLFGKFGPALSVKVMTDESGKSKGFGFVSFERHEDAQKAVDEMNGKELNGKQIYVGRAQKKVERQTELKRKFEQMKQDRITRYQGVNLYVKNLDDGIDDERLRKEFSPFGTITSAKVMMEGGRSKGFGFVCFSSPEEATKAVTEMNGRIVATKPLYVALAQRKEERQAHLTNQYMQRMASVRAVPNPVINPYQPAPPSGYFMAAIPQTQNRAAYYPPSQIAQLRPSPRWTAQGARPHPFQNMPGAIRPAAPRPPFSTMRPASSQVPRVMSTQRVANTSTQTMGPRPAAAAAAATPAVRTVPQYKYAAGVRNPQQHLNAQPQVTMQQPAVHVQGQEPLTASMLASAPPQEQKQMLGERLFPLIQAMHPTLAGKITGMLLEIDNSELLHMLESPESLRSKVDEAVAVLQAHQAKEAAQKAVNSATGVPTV
CSC inhib: blocks cancer stem cells; 300,000 compounds, 1.1% hits; cancer stem cell-like cells viability, luminescence; inhibition, % at 7.5 µM;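 active = mean at 75% or more and at least half the replicates too; inconclusive = mean and replicates disagree; tested in HMLE shEcad cells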;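 note: 0% = median of negative and 100% = median of positive control wells; the first replicate is given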
eIF4H inh retest: second read-out of eIF4H inh, no call of its own (marks repeat the call); inhibition, %; compound at 20 µM; confirmation average;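 mean of two retest wells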
PABP polyA inh retest: also measured in PABP polyA inh; calls as there; inhibition, %; compound at 20 µM; confirmation repeats;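 mean of two retest wells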
MT1-MMP act inh RFP: also measured in MT1-MMP act inh; calls as there; RFP signal change, %; measured here: RFP expression control read;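 0 = vehicle wells; hits needed this value within 50% of zero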
Starred values were filed as active, the others as inactive; i = inactive; ? = inconclusive; / = not tested or not shown.

SMILES | eIF4H inh | MT1-MMP act inh | MT1-MMP act inh RFP | Yeast UUG start | Rce1 inh | Env fusion inh | PABP polyA inh | CSC inhib | others
Cc1ccc(C2=NN(C(=O)CCl)C(c3cccs3)C2)o1 (configuration not stated) | 2 | -4 | -4 | / | i | -15 | 30 | /
COc1ccccc1N(C)S(=O)(=O)c1ccc(C(=O)N2CCCc3ccccc32)cc1 | -7 | -11 | -21 | 1 | i | 14 | 6 | 4
O=C(c1ccccn1)N(Cc1ccco1)C1(C(=O)Nc2ccc(Br)cc2)CCCCC1 | / | -2 | -4 | 16 | / | -1 | / | /
CCN(CC)c1cc(C)c2cc(NC(=O)c3ccccc3F)ccc2n1 | 9 | 4 | 1 | 10 | i | -14 | -3 | 17
Cc1cccc(C(=O)Oc2ccccc2C2C[C@]3(C)CC(=O)NC3N2C(=O)c2cccc(C)c2)c1 (some centres not stated) | -1 | 7 | -4 | -3 | i | 48* | -5 | 3
COc1cccc(CC(NC(C)=O)C(=O)NC2CCN(S(=O)(=O)c3ccc4ccccc4c3)CC2)c1 (configuration not stated) | 2 | 2 | -2 | -14 | i | / | -7 | 4
CCCC(=O)n1nc(-c2ccccc2)nc1SC | -3 | -9 | -12 | -8 | i | -17 | -9 | -10
CC1(c2ccc(OC(F)F)cc2)NC(=O)N(CC(=O)N2c3ccccc3NC(=O)C2(C)C)C1=O (configuration not stated) | / | -2 | -3 | 7 | / | 3 | / | -12
Cc1ccc(S(=O)(=O)Nc2cc(C)c(O)cc2C)cc1 | ? | 5 | 3 | / | i | 9 | ? | 9
Cn1c(=O)oc2cc(S(=O)(=O)NC(Cc3ccccc3)C(=O)N3CCCCC3)ccc21 (configuration not stated) | ? | 2 | 1 | -16 | / | 8 | ? | -6
N=c1n(CCN2CCCCC2)c2ccccc2n1CC(=O)c1cccc([N+](=O)[O-])c1 | -4 | 2 | 2 | 6 | i | -9 | -3 | 7
COc1cc2[nH]c(C(=O)N3CCN(c4ccccc4F)CC3)cc2c(OC)c1OC | -2 | 1 | -1 | 3 | i | 2 | 14 | -13
COc1cc(C#N)ccc1OCC(=O)Nc1cccc(S(=O)(=O)N2CCCC2)c1 | -10 | 4 | -3 | / | i | -6 | 30 | -4
CCOC(=O)c1cc2cc(F)ccc2nc1C | -4 | 2 | 6 | -27 | / | / | -5 | -11
COc1ccccc1N1CCN(CC(=O)Nc2ccc3c(c2)OCCO3)CC1 | 8 | 3 | 1 | / | i | -12 | 2 | -9
O=C(CSc1nncs1)Nc1ccc2[nH]c(=O)[nH]c2c1 | / | -6 | 3 | 11 | i | 31 | / | -8
COc1ccc(-c2c3c(=O)n(C)c(=O)n(C)c3cn2-c2ccccc2)cc1 | 2 | -2 | 5 | -6 | i | / | 13 | -13
C(#Cc1ccccc1)CN1CCOCC1 | -15 | 1 | 5 | / | i | -4 | -2 | -6
CCOC(=O)C1=C(CC)Nc2ccccc2N=C1NC(=O)c1oc2ccccc2c1C | -4 | -22 | -12 | / | i | -6 | 16 | 42
COC(=O)c1cc2c(ccc3ccccc32)oc1=O | / | 5 | -3 | -16 | i | 2 | / | /
CCN(CC(=O)Nc1ccccc1C(=O)Nc1ccccc1)Cc1nc2ccccc2c(=O)[nH]1 | -6 | 4 | 4 | / | i | 6 | -12 | 3
O=C(N/N=C/c1ccc(OC(=O)c2ccccc2Cl)cc1)c1ccccn1 | -10 | -1 | -2 | -21 | i | / | 5 | -2
COc1ccc(CN(C(=O)c2snc(C(N)=O)c2N)C(C(=O)NC2CCCC2)c2ccc(OC)cc2)cc1 (configuration not stated) | -20 | -3 | -4 | -9 | i | 15 | -2 | -16
COc1cccc(/C=C2\SC(=S)N(NS(=O)(=O)c3ccccc3)C2=O)c1OC | -8 | -1 | 2 | -13 | i | -9 | 2 | 1
Cc1cc(=O)oc2cc(OC(C)C(=O)NCC3CCC(C(=O)O)CC3)ccc12 (configuration not stated) | 0 | 5 | 8 | -19 | i | / | -2 | -12

Two records picked at random from those above, as already listed:
SMILES | eIF4H inh | MT1-MMP act inh | MT1-MMP act inh RFP | Yeast UUG start | Rce1 inh | Env fusion inh | PABP polyA inh | CSC inhib | others
CC1(c2ccc(OC(F)F)cc2)NC(=O)N(CC(=O)N2c3ccccc3NC(=O)C2(C)C)C1=O (configuration not stated) | / | -2 | -3 | 7 | / | 3 | / | -12
O=C(CSc1nncs1)Nc1ccc2[nH]c(=O)[nH]c2c1 | / | -6 | 3 | 11 | i | 31 | / | -8

Next structures follow:
SMILES | eIF4H inh | MT1-MMP act inh | MT1-MMP act inh RFP | Yeast UUG start | Rce1 inh | Env fusion inh | PABP polyA inh | CSC inhib | others
CCC(C)[C@H](N)c1cn([C@@H](CCCCN)C(=O)N2CCNCC2)nn1 (some centres not stated) | -5 | 3 | 8 | 13 | i | 2 | 50* | -5
Cc1nc2c(-c3ccccc3)cnn2c(N)c1-c1ccccc1 | -2 | 2 | -4 | -74 | i | i | -8 | 28
CCCCc1cc(=O)oc2cc(C)cc(OC(C)C(=O)O)c12 (configuration not stated) | -10 | -1 | 0 | -23 | i | -16 | 2 | 11
O=C1NC2(CCc3ccccc32)C(=O)N1CCOc1ccc(Cl)cc1 (configuration not stated) | 1 | 1 | -2 | -8 | i | -159 | -15 | /
O=C1c2ccccc2[C@@H]2C[C@@H](O)[C@H](Nc3cccc(C(F)(F)F)c3)CCN12 | / | 0 | -3 | 0 | / | 1 | / | /
Cc1ccccc1C(=O)N1CCC(C(=O)Nc2cccc(F)c2)CC1 | 7 | 3 | 3 | 7 | i | / | -4 | /
CCOC(=O)c1cnc(SC2CC(=O)N(c3ccc(C)cc3)C2=O)nc1N (configuration not stated) | 8 | 2 | -2 | -6 | i | -291 | 3 | -7
CCOC(=O)C1=C(C)NC(=S)NC1c1ccc(OCC(=O)N2CCCCCC2)cc1 (configuration not stated) | 2 | -1 | 0 | -8 | i | 7 | 5 | /
CCOc1ccc(S(=O)(=O)Nc2ccc(C(=O)NN)cc2)cc1 | -1 | 8 | 1 | -12 | i | 14 | -9 | -5
Cc1ccc(Cl)c(NC(=O)CN2C(=O)C(C)N(c3ccc(F)cc3)C2=O)c1Cl (configuration not stated) | / | -4 | 2 | -31 | / | 1 | / | /
CC(=O)c1cccc(NC(=O)COC(=O)c2n[nH]c3ccccc23)c1 | -4 | 0 | 2 | / | i | -3 | -6 | -2
Cc1ccc(NC(=O)COC(=O)CNC(=O)C2CCCCC2)c(Br)c1 | -8 | 1 | 2 | / | i | -2 | 2 | /
CSc1ncccc1C(=O)Nc1ccc(C)cn1 | -21 | -4 | -2 | -5 | i | -6 | -1 | 2
O=S(=O)(Cc1ncc(C(F)(F)F)cc1Cl)c1ccccc1 | 2 | -3 | 3 | -7 | i | -28 | 4 | 8
COc1ccc(/C=C\C(=O)NCc2ccc3[nH]c(C)cc3c2)cc1OC | -2 | 2 | 4 | -1 | i | / | 17 | -5
CCOCCCNC(=O)c1ccc(CS(=O)(=O)Cc2cccc(C)c2)o1 | 5 | 7 | 3 | -20 | i | -3 | -8 | -5
Cc1onc(-c2ccccc2Cl)c1C(=O)N(Cc1ccccc1)C(C)C | -10 | -4 | 1 | 2 | i | 15 | -10 | -1
O=S(=O)(CCSc1nc2ccccc2o1)Cc1ccccc1 | 8 | 1 | -1 | -23 | i | / | 17 | -9
CC(=O)Nc1ccc(SCC(=O)OCC(=O)NC(=O)NC2CCCC2)cc1 | -7 | 2 | 3 | / | / | -23 | 15 | 3
Cc1cccc(Nc2nnc(SCC(=O)Nc3cccnc3Cl)s2)c1 | 1 | 5 | -2 | / | i | / | 10 | 1
COc1ccc(CNC(=O)CN(C)S(=O)(=O)c2ccc(Cl)cc2)cc1 | 2 | 0 | 1 | -6 | i | 2 | -4 | -15
CCOC(=O)c1sc(NC(=O)c2ccc(Cl)s2)cc1C | -4 | -3 | 5 | -12 | i | -52 | 6 | 5
COc1ccccc1N(CC(=O)NCCSc1ccc(Cl)cc1)S(C)(=O)=O | -2 | 4 | -3 | -3 | i | 12 | -1 | -3
CCc1ccc(C(=O)NC(CCSC)C(=O)OC)cc1 (configuration not stated) | -5 | 1 | 4 | 10 | i | -5 | -7 | 2
O=C(NC1CC1)C1CC(=O)N(c2cccc(Cl)c2)C1 (configuration not stated) | 3 | -4 | -1 | -11 | i | 3 | 7 | 7

Next section
SMILES | eIF4H inh | MT1-MMP act inh | MT1-MMP act inh RFP | Yeast UUG start | Rce1 inh | Env fusion inh | PABP polyA inh | CSC inhib | others
CCOc1ccc(CC(=O)NCCS(=O)(=O)N2CCN(c3ccccc3)CC2)cc1 | / | -1 | -5 | -14 | i | -61 | / | -4
CCOCCCNC(=O)C(NC(=O)CNC(=O)c1ccccc1)c1ccc(C)cc1 (configuration not stated) | 9 | -2 | 3 | -13 | i | -75 | 4 | -5
Cc1ccc(C(=O)OCC(=O)NCc2ccc(F)cc2)o1 | / | -1 | 2 | -26 | / | / | / | -7
CCCCn1c(=O)cc(N2CCOCC2)[nH]c1=O | 3 | -6 | 2 | -13 | i | / | 2 | -2
COc1ccc(NS(=O)(=O)c2cccs2)cc1S(=O)(=O)N1CCOCC1 | -13 | 1 | 1 | -10 | / | 20 | 6 | -14
Cc1cc(C)cc(OCc2nnc(SCC(=O)OC(C)C)o2)c1 | -10 | -1 | 3 | -1 | i | -15 | 3 | /
Cc1ccc(NC(=O)CCCN2C(=O)C(c3ccccc3)Oc3cccnc32)c(C)c1 (configuration not stated) | / | 0 | 1 | -14 | / | -30 | / | /
COC(CN(C)S(=O)(=O)c1cc2c3c(c1)CCN3C(=O)CC2)OC | 3 | 6 | 7 | -20 | i | 5 | 10 | -10
Cn1cccc1CN1CCC[C@]2(N[C@H](c3ccc(C(F)(F)F)cc3)[C@@H]3C(=O)N(Cc4ccccc4)C(=O)[C@@H]32)C1=O | / | 1 | 2 | -4 | / | -72 | / | /
COc1ccc(CN2C3CCCC2CC(NC(=O)Nc2ccccc2)C3)cc1 (configuration not stated) | 1 | 4 | 7 | -12 | i | 40 | 2 | -6
Cc1cccc(C)c1-n1c(SCC(=O)N2CC(=O)Nc3ccccc32)nc2ccccc2c1=O | -1 | -2 | -5 | / | i | -7 | -3 | -12
COc1ccccc1CCC(=O)N1CCN(S(=O)(=O)c2cc(C(F)(F)F)ccc2Cl)CC1 | / | -4 | 1 | 3 | / | 13 | / | 5
CC(C)c1ccccc1NC(=O)CCCC(=O)O | -1 | -2 | 2 | -9 | i | / | 17 | 0
CCCc1cc(=O)oc2c(C)c(OCC(=O)Nc3ccccn3)ccc12 | -5 | 1 | 3 | -12 | i | -54 | -13 | 16
OCC[C@@H]1C[C@@H](O)[C@H](O)[C@@]2(Cc3ccccc3O2)O1 | -4 | 2 | 8 | -12 | i | 5 | -1 | -2
N=C1S/C(=C\c2ccc(-c3cccc(Cl)c3)o2)C(=O)N1c1nccs1 | 73 | -43 | -16 | -10 | i | / | 1 | 65 | eIF4H inh retest=0;PABP polyA inh retest=-2
CCOC(=O)COc1c(Cl)cc(/C=C2\N=C(C)OC2=O)cc1OC | / | 2 | 6 | -6 | i | 4 | / | -3
COc1ccc(-n2nc(C(=O)N3CCN(Cc4ccc5c(c4)OCO5)CC3)c3ccccc3c2=O)cc1 | 9 | 2 | 1 | / | i | / | 4 | 8
O=C(COc1ccc2ccccc2c1)N1CCN(C(=O)c2cccs2)CC1 | 2 | 4 | 1 | -5 | / | / | -9 | -2
Cc1ccc(NS(=O)(=O)c2cc(C(=O)N3CCN(C)CC3)ccc2C)cc1C | -9 | 4 | -2 | -24 | i | 13 | -8 | -13

Screens: PubChem, several laboratories
